From PubChem
Vaccinia Venus = inhibitors of vaccinia virus (Venus reporter). Vaccinia virus Venus reporter expression, fluorescence. 0.46% of 330,000 active. Potency, µM (titrated, usually from 36.5 µM), for the others: at the highest dose activity change, negative = inhibition, usual class: inhibitors. AID 720580; active means well fitted inhibition curve with a large enough effect; inconclusive means small, poorly fitted or top-dose-only effect; inactive means no such curve, though single readings can be large or run the other way; tested in A549 cells; also: nearly all actives have a fitted effect of over 30% in size; inactives centre near -10
VACV mCherry inh = inhibitors of vaccinia virus infection (mCherry reporter signal); Vaccinia virus mCherry reporter infection, fluorescence; about a quarter of the inactives have no number; Potency, µM (series often up to 36.5 µM), for inactives: at the top dose activity change, negative = inhibition, most hits filed as inhibitors; 0.63% of 310,000 active; active = well fitted inhibition curve with a large enough effect; inconclusive = small, poorly fitted or top-dose-only effect; inactive = no such curve, though single readings can be large or run the other way; tested in A549 cells; also: nearly all actives have a fitted effect of over 35% in size; inactives centre near -10
Active calls of the source: *; i = inactive; ? = inconclusive; · = no result given; [ ] = remark or other dose. % is scaled to controls: 0 for no effect and ±100 for the full control effect; potency is read from the fitted curve at half-maximal effect.

Each structure is followed by: Vaccinia Venus	VACV mCherry inh
(1) COc1cccc(C(=O)NCC(c2cccnc2)N2CCN(c3ccccc3OC)CC2)c1 (configuration not stated)
    -24%	-20%
(2) CC(C)(C)OC(=O)C[C@H]1C/C=C\C[C@@H](CC(=O)N(CCO)Cc2ccccc2)C(=O)NC[C@@H](c2ccccc2)OC1=O
    -29%	i
(3) CCCOc1ccc(OCCNC2CCCC2)cc1
    -3%	-6%
(4) Cc1ccc(COc2coc(CN3CCN(C(=O)c4ccco4)CC3)cc2=O)cc1
    -17%	-5%
(5) COC(=O)c1cc(S(=O)(=O)Nc2nn(C)c3cccc(F)c23)oc1C
    -16%	i
(6) O=C(CCNS(=O)(=O)c1ccc(OC(F)(F)F)cc1)N1CCCC1
    -19%	-2%
(7) O=C1c2ccccc2C(Nc2ccccc2F)N1c1cccnc1 (configuration not stated)
    -7%	?
(8) COc1ccc(NC(=O)N(C)C[C@H]2Oc3ccc(NS(=O)(=O)c4cccs4)cc3C(=O)N([C@@H](C)CO)C[C@@H]2C)cc1
    -9%	-11%
(9) CC(C)(C)C(=O)Nc1ccc(C(=O)N/N=C/C2CC3C=CC2C3)cc1 (configuration not stated)
    -15%	i
(10) O=C(Cn1c(=O)oc2cc(S(=O)(=O)N3CCCCC3)ccc21)N1CCc2ccccc21
    ?	i
(11) COc1ccccc1-n1cnc2cc(NCc3ccccc3O)ccc21
    -17%	?
(12) COc1cc(/C=C/C(=O)O)cc(S(=O)(=O)NCC2CCCO2)c1OC (configuration not stated)
    -22%	-10%
(13) Cc1ccc(C2=Nc3ccccc3N(CC(=O)NCc3ccccc3Cl)C(=O)C2)cc1C
    -9%	-11%
(14) CCNc1nc(NCC)n2c(SCC(=O)Nc3ccccc3)nnc2n1
    -11%	i
(15) COC(=O)c1c(N2C(=O)CC(Sc3ncccc3C(=O)O)C2=O)sc(C)c1C (configuration not stated)
    -10%	-17%
(16) Cc1ccc(NS(=O)(=O)c2ccc3[nH]c4c(c3c2)CCCCCC4)cc1C
    -22%	-2%
(17) CCc1ccc(-n2c(=O)c3cccnc3n2CC(=O)N(CC)c2cccc(C)c2)cc1
    -5%[7.34 µM]	-12%[7.34 µM]
(18) COc1ccc(S(=O)(=O)N(C)CC(=O)N2CCCCCC2)cc1OC
    -8%	·
(19) Cc1ccc(CN(C)C(=O)C2CCC(=O)N(C3CCCCCC3)C2)cc1 (configuration not stated)
    -16%	-15%
(20) CCn1cc(C(=O)NN)c(=O)c2cc(F)c(N3CCOCC3)cc21
    -13%	-12%
(21) Fc1ccc2cnc(-c3ccccc3)c(-c3cccc(C(F)(F)F)c3)c2c1
    -17%	i
(22) COc1cc(NC(=O)c2c(F)c(F)c(OC)c(F)c2F)ccc1NC(=O)c1cccs1
    ?	-19%
(23) Cc1cc2cc(CNS(=O)(=O)c3ccccc3)ccc2n1C
    56%[activator]	11%
(24) Cc1cc(OCC(=O)Nc2ccc(N3CCN(C(=O)c4ccco4)CC3)cc2)cc(C)c1Cl
    ?	?
(25) O=C(NCc1ccc2c(c1)OCO2)c1cc2n(n1)C(C(F)(F)F)CC(c1ccc3c(c1)OCO3)N2 (configuration not stated)
    -18%	-1%
(26) O=C(c1cc(C2CC2)nn1-c1ccccc1)N1CCN(c2ncc(C(F)(F)F)cc2Cl)CC1
    -11%	-20%
(27) COc1ccc(CNC(=O)c2cc(C(=O)C3CC3)c[nH]2)cc1
    -3%	-12%
(28) CCN1CCN(C(=O)Cn2nc(-c3ccc(Cl)cc3)ccc2=O)CC1
    -9%	i
(29) Cc1ccc(-c2nnc(Nc3ccc(S(N)(=O)=O)cc3)c3ccccc23)cc1S(=O)(=O)N1CCOCC1
    -14%	i
(30) O=C(NCCc1csc(-c2ccc(C(F)(F)F)cc2)n1)C(=O)Nc1ccc(F)c(Cl)c1
    -12%	-6%
(31) O=C(/C=C/c1cc([N+](=O)[O-])ccc1OC(F)F)NCc1ccc(Cl)cc1
    -27%	·
(32) COc1cc2nc(=S)n3[nH]c(CCn4c(C)nc5ccccc54)nc3c2cc1OC
    -9%	i
(33) Cc1ccc2nc(-c3ccc(C)o3)c(Nc3ccc4c(c3)OCO4)n2c1
    -13%	i
(34) C#CC1(O)CCC2C3CCC4=CC(=O)CCC4=C3C=CC21C (configuration not stated)
    -2%	-4%
(35) CCc1ccc(NC(=O)Cn2nc(C(F)(F)F)c3c2CCCC3)cc1
    -14%	-17%
(36) C=CCC[C@H](CCCCC)OC(=O)/C=C/[C@H](O)[C@@H](O)C[C@@H](O)CC=C
    -17%	-6%
(37) Cc1cccc(N2C(=O)C(O)=C(C(=O)c3cccs3)C2c2cccc(Oc3ccccc3)c2)n1 (configuration not stated)
    -19%	-19%
(38) CC(=O)N1CCc2cc(C(=O)CN3CCN(c4ccccn4)CC3)ccc21
    -7%	i
(39) O=C(CNC(=O)c1ccccc1)Oc1ccc([N+](=O)[O-])cc1
    -22%	-17%
(40) COCCN(CC(=O)NCc1ccc2c(c1)OCO2)C(=O)CCC(=O)Nc1nccs1
    -9%	i
(41) COc1ccc(C(=O)C[n+]2ccc(C)cc2)cc1
    -8%	0%
(42) CCc1nnc(NC(=O)CCC(=O)Nc2ccccc2)s1
    0%	-10%
(43) CCc1cc(CNC(=O)C2CCC(=O)N(CCc3ccc(OC)cc3)C2)on1 (configuration not stated)
    -18%	i
(44) O=C(CSc1ncccn1)N(Cc1cccnc1)C(CCc1ccccc1)c1nc2ccccc2[nH]1 (configuration not stated)
    3%	8%
(45) CCn1cc(C(=O)Nc2sc(C)c(C)c2C(=O)OC)cn1
    -3%	-7%
(46) COc1ccc2[nH]c(=O)c(CN(C(=O)c3cccc(Cl)c3)c3ccccc3C)cc2c1
    -10%	-9%
(47) Cc1cccc(-c2nsc(SCC(=O)NCC3CCCO3)n2)c1 (configuration not stated)
    -14%	-26%
(48) COc1cc(NC(=O)c2ccccc2)c(OC)cc1NC(=O)Cc1ccccc1
    -24%	-6%
(49) CN(CCOc1ccccc1)C(=O)C1CCN(C(=O)c2ccc(F)cc2)CC1
    -13%	i
(50) Cc1cccc(C(=O)OCC(=O)NC(=O)Cc2ccccc2)c1O
    -6%	0%
(51) O=C(NCCc1ccccc1)C1CCCN(S(=O)(=O)c2cccc3nsnc23)C1 (configuration not stated)
    -17%	-7%
(52) COc1ccc(/C=C/c2c(-c3cccc(C)c3)oc3ccc(N4CCOCC4)cc23)cc1
    -3%	?
(53) O=C(CN(Cc1ccc(F)cc1)S(=O)(=O)c1ccccc1)N1CCCCC1
    -13%	·
(54) Cc1ccc(CNC(=O)c2ccccc2NC(=O)CSc2nnnn2C)cc1
    -16%	·
(55) CCOC(=O)N1CCN(S(=O)(=O)c2c(C)cc(C)cc2C)CC1
    -3%	·
(56) COc1ccc(-n2ncc3c(NCCC4=CCCCC4)ncnc32)cc1
    -1%	-15%
(57) CCCN(CCC)Cc1c(C(=O)N/N=C/C(C)=C\c2ccccc2)nnn1-c1nonc1N
    ?	?
(58) Cc1cccc(S(=O)(=O)NCCc2cn3ccccc3n2)c1
    -5%	i
(59) Fc1ccc(Nc2ncnc3c2nc2n3CCCCC2)c(F)c1
    -6%	-1%
(60) COc1ccccc1-c1sc2ccccc2c1-c1ccccc1OC
    -4%	i

Following part.
Each structure is followed by: Vaccinia Venus	VACV mCherry inh
(61) COc1ccc(Cl)cc1S(=O)(=O)N1CCN(C(=O)c2cc(OC)c(OC)c(OC)c2)CC1
    -25%	-10%
(62) CCCCN(CC)CCNC(=O)c1cc2c(C)nc3ccccc3c2o1
    -1%	13%
(63) CCCCCOP(=O)(OCCCCC)C1(NS(=O)(=O)c2ccccc2)C=CC(=O)c2ccccc21 (configuration not stated)
    ?	·
(64) O=C(c1ccccc1)c1ccc(OCCCCN2CCCCC2)cc1
    ?	-27%
(65) Oc1ccc(-c2csc(Nc3ncccn3)n2)cc1
    -2%	-25%
(66) O=C(N/N=C\c1cc([N+](=O)[O-])ccc1N1CCOCC1)c1ccccn1
    3%	i
(67) COCCNC(=O)C(Cc1c[nH]c2ccccc12)NC(=O)OCc1ccccc1 (configuration not stated)
    -14%	-21%
(68) CCN(C(=O)CSc1nc2ccccc2c(=O)n1Cc1ccc(C)cc1)C1CCS(=O)(=O)C1 (configuration not stated)
    -6%	-6%
(69) CCc1ccc(NC(=O)Cn2c(=O)n(CCC(=O)NCc3ccc4c(c3)OCO4)c(=O)c3ccccc32)cc1
    -8%	-12%
(70) Cc1ccccc1-n1c(SCC(=O)c2ccccc2)nnc1-c1ccc(F)cc1
    -15%	-18%
(71) COc1cccc(CNC(=S)Nc2cc(OC)ccc2OC)c1
    -9%	-10%
(72) O=C(N/N=C\c1cccc(OC(=O)c2ccco2)c1)c1ccc2c(c1)OCO2
    -10%	-21%
(73) O=C1Nc2ccccc2C(=O)N(C2CCCC2)C1C(=O)NC1CC1 (configuration not stated)
    -5%	-2%
(74) Cc1cc(/C=C2/SC(=O)N(CC(=O)OC(C)C)C2=O)c(C)n1C
    -14%	i
(75) Cn1cc(C(=O)Nc2cccc(F)c2)cn1
    -8%	·
(76) N=c1c(C(=O)NCc2ccc3c(c2)OCO3)cc2c(=O)n3ccccc3nc2n1CC1CCCO1 (configuration not stated)
    -6%	-12%
(77) CCc1cc(C(N)=O)c(NC(=O)c2ccc(OC)cc2)s1
    ?	?
(78) O=c1cc(N2CCCC2)c2ccccc2o1
    -13%	i
(79) COC(=O)c1cn(C(=O)c2ccco2)c2ccccc12
    -10%	·
(80) CCC(C)(C#CCN1CCCCC1)OCCC#N (configuration not stated)
    0%	i

Sorted by molar mass (largest number first): part of the list above
Each structure is followed by: Vaccinia Venus	VACV mCherry inh
(76) N=c1c(C(=O)NCc2ccc3c(c2)OCO3)cc2c(=O)n3ccccc3nc2n1CC1CCCO1 (configuration not stated)
    -6%	-12%
(70) Cc1ccccc1-n1c(SCC(=O)c2ccccc2)nnc1-c1ccc(F)cc1
    -15%	-18%
(66) O=C(N/N=C\c1cc([N+](=O)[O-])ccc1N1CCOCC1)c1ccccn1
    3%	i

Next results.
Each structure is followed by: Vaccinia Venus	VACV mCherry inh
(81) O=C(COc1coc(CN2CCc3ccccc3C2)cc1=O)Nc1cccc([N+](=O)[O-])c1
    -7%	i
(82) CCOc1ccc(NC(=O)CC2C(=O)N(c3ccc(OC)cc3)C(=O)N2Cc2ccc(OC)cc2)cc1 (configuration not stated)
    -14%	i
(83) COc1ccc(O)c(/C=N/NC(=O)c2ccc(CSc3nc(C)cc(C)n3)cc2)c1
    ?	8.9µM*
(84) COc1cccc(-n2c(SCC(=O)NC3CCCC3)nnc2-c2ccco2)c1
    -30%	?
(85) O=c1c(O)c(-c2ccc(O)cc2)oc2cc(O)cc(O)c12
    -6%	-14%
(86) Cc1ccccc1C(=O)Nc1ccc2nc(SCC(=O)N3CCc4ccccc43)sc2c1
    -3%	-15%
(87) COc1cccc(N2CCN(C(=O)Cn3c(-c4cccs4)cc4ccccc43)CC2)c1
    -12%	-14%
(88) Cn1c(N/N=C/c2cc3ccccc3nc2Cl)nc2ccccc21
    1%	-29%
(89) Cc1ccc(Cl)c(NC(=O)CSc2cccc[n+]2[O-])c1Cl
    -2%	-25%
(90) Cc1ccc2ccccc2[n+]1CCCCI
    -9%	-9%
(91) CCOC(=O)CON1C(=O)C(C)(C)N(OCC(=O)OCC)C(=O)C1(C)C
    8%	·
(92) CN(C)S(=O)(=O)c1ccc(C(=O)OCC2CCCO2)cc1 (configuration not stated)
    -3%	-3%
(93) O=c1oc2cc(Br)ccc2n1CSC1=NCCS1
    -16%	·
(94) O=C1c2cccc(NCCCNCCO)c2C(=O)c2cccc(NCCCNCCO)c21
    ?	?
(95) CCC(C)n1c(=N)c(C(=O)NCc2ccco2)cc2c(=O)n3cc(C)ccc3nc21 (configuration not stated)
    -15%	-9%
(96) NNC(=O)CSc1c(-c2cccs2)[nH]c2ccccc12
    -15%	-6%
(97) COc1cc(-c2noc(C)n2)cc(OC)c1OC
    -15%	-13%
(98) CCC(C)(C(=O)NC1CCCCC1)N(CC1CCCO1)C(=O)Cc1cccs1 (configuration not stated)
    -4%	-6%
(99) CCOc1ccccc1CNC(=O)CN1C(=O)CCCc2ccccc21
    -4%	i
(100) Cc1c(-c2nc(N)nc(Nc3ccccc3)n2)oc2ccccc12
    ?	?
(101) Cn1c(=O)c2c(ncn2CC(=O)OCC(=O)NCc2ccc(Cl)cc2)n(C)c1=O
    -5%	-11%
(102) CCCS(=O)(=O)c1snnc1C
    0%	-6%
(103) C=CCC(C)(NCc1ccccc1)c1ccccc1 (configuration not stated)
    -11%	-3%
(104) COC1=C2C[C@H](C)C[C@H](OC)[C@@H](O)[C@@H](C)C=C(C)[C@H](OC(N)=O)[C@@H](OC)C=CC=C(C)C(=O)NC(=CC1=O)C2=O
    ?	?
(105) CC(=O)Nc1ccc(NC(=O)CCc2c(C)noc2C)cc1
    -14%	-14%
(106) Cn1c(=O)c2c(nc(N3CCOCC3)n2Cc2cccc(Br)c2)n(C)c1=O
    3%	-5%
(107) O=C1C=C(c2cccc3c2sc2ccccc23)C[C@@H](c2ccc(F)cc2)C1
    -18%	?
(108) Cc1ccc(NC(=O)Cn2cnc3nc4c(cc3c2=O)CCCC4)cc1Cl
    -8%[7.34 µM]	-11%
(109) O=C1NC(c2cccc(OCc3ccccc3)c2)Nc2ccccc21 (configuration not stated)
    ?	-22%

One compound at a time (already shown).
`O=C1C=C(c2cccc3c2sc2ccccc23)C[C@@H](c2ccc(F)cc2)C1` as listed: Vaccinia Venus = -18%; VACV mCherry inh = ?
`Cn1c(=O)c2c(nc(N3CCOCC3)n2Cc2cccc(Br)c2)n(C)c1=O` as listed: Vaccinia Venus = 3%; VACV mCherry inh = -5%
